Vaccinia mCherry: qHTS for Stage-Specific Inhibitors of Vaccinia Orthopoxvirus: mCherry Reporter Primary qHTS. Potency, µM (top dose mostly 36.5 µM), inactives show at the top dose activity change, negative = inhibition, usual class: inhibitors. AID 720579, 2013. Vaccinia virus mCherry reporter infection, fluorescence; about a quarter of the inactives have no number. hit rate 0.63% among 310,000; active = well fitted inhibition curve with a large enough effect; inconclusive = small, poorly fitted or top-dose-only effect; inactive = no such curve, though single readings can be large or run the other way; tested in A549 cells; further: nearly all actives have a fitted effect of over 35% in size; inactives centre near -10
VACV Venus inh: qHTS for Stage-Specific Inhibitors of Vaccinia Orthopoxvirus: Venus Reporter Primary qHTS. Vaccinia virus Venus reporter expression, fluorescence. Potency, µM (series often up to 36.5 µM), inactives show at the top dose activity change, negative = inhibition, actives largely listed as inhibitors. hit rate 0.46% among 330,000. AID 720580, 2013; active means well fitted inhibition curve with a large enough effect; inconclusive means small, poorly fitted or top-dose-only effect; inactive means no such curve, though single readings can be large or run the other way; tested in A549 cells; further: nearly all actives have a fitted effect of over 30% in size; inactives centre near -10
Starred values were filed as active, the others as inactive; i = inactive; u = inconclusive; x = no result given; & = joins results of further samples; [ ] = dose if it differs, or a comment. On the % scale 0 is the no-effect control and ±100 the full control effect; potency means the concentration at half of the fitted maximal effect.

SMILES	Vaccinia mCherry	VACV Venus inh
O=C(c1ccco1)N1CCN(S(=O)(=O)c2ccc(C3CCCCC3)cc2)CC1	-26%	u
Cc1[nH]c2ccccc2c1/C=C/c1cc[n+](C)cc1	-22%	27%
Cc1cc(C)c(NS(=O)(=O)c2ccc3c(c2)NC(=O)C(C)C(=O)N3)c(C)c1 (configuration not stated)	-3%	u
Cc1nn(CC(=O)NCCCN2CCCC2=O)c(C)c1[N+](=O)[O-]	u	-21%
O=S(=O)(c1cccc(-c2nnco2)c1)N1CCCC1	-15%	-1%
CCc1ccc(NC(=O)C2CCCN2S(=O)(=O)c2ccc3nc(-c4ccccc4)[nH]c3c2)cc1 (configuration not stated)	-17%	u
COc1cc(NC(=O)c2c(-c3ccc(C)cc3)nnc3ccccc23)cc(OC)c1OC	-27%	-19%
Cc1ccc(/C(O)=C/c2nc3ccccc3oc2=O)cc1	u	-6%
CCCN1CNc2c(c(=O)[nH]c(=S)n2CCc2ccccc2)C1	-4%	-11%
COc1ccc(CCNCC(O)c2ccccc2)cc1 (configuration not stated)	-4%	4%
Cc1ccc(CNC(=O)CNC(=O)[C@@H]2Cc3ccccc3CN2C(=O)OC(C)(C)C)cc1	-8%	-17%
CCc1nnc(NC(=O)c2nc(SCc3ccccc3C)ncc2Cl)s1	-7%	-3%
O=C(OCc1ccc([N+](=O)[O-])cc1Cl)c1cnccn1	i	-9%
Cc1nc(-c2ccc(S(=O)(=O)Nc3ccc(C)c(N(C)C)c3)cc2)co1	-22%	-11%
CC(=O)Cc1nsc(NC(=O)c2ccccc2Cl)n1	-5%	-2%
O=C1C2C3C=CC(O3)C2C(=O)N1N=Cc1ccc2c(c1)OCO2 (configuration not stated)	0%	-4%
Cc1c(-c2nnc(SCC(=O)Nc3ccccc3F)o2)nnn1-c1ccc(F)cc1	-17%[7.34 µM]	-1%[7.34 µM]
O=C(NCc1ccncc1)[C@@H]1CCCN1C(=O)[C@@H]1CCCN1C(=O)c1ccccc1	-7%	-1%
Cc1nc(NC(=O)C23CCC(C)(C(=O)O2)C3(C)C)sc1C (configuration not stated)	x	-13%
COc1ccc(/C=C(\C#N)C(=O)OCC(=O)N2CC(C)OC(C)C2)cc1 (configuration not stated)	-10%	-12%
Cc1ccc(NC(N)=S)cc1	i	-20%
COc1ccc(OC)c(/C=N/NC(=S)NCCc2ccccc2)c1	-17%	-12%
CC(C(=O)Nc1sc2c(c1C(=O)NCC1CCCO1)CCC2)N1C(=O)c2ccccc2C1=O (configuration not stated)	-19%	-11%
Cc1ccc(C)c(S(=O)(=O)N2CCN(CC(=O)Nc3cc(C)on3)CC2)c1	-28%	-23%
O=C(CC1Sc2ccccc2NC1=O)NNc1cccc(Cl)c1Cl (configuration not stated)	u	u
CC(C)(C)C1CCC2(CC1)C(C#N)=C(SCC(=O)NC1CCCCC1)NC(=O)C2C#N (configuration not stated)	u	-27%
Cc1occc1-c1nnc(SCC(=O)NC2CCCC2)n1-c1ccccc1	i	-11%
COc1ccc(NC(=O)COC(=O)c2ccc(O)cc2)c([N+](=O)[O-])c1	-16%	-17%
Brc1ccc(-c2cn3ccccc3n2)s1	-29%	-20%
CSc1ccc(CCNC(=O)c2c(C)nn(-c3ccc(F)cc3)c2-n2cccc2)cc1	-22%	-7%
CCOC(=O)c1ccc(NC(=O)NC2=NCCS2)cc1	u	u
CC(NC(=O)COC(=O)c1cc(=O)[nH]c2ccccc12)c1ccccc1 (configuration not stated)	i	-9%
Cc1ccc2c(CSc3nc4ccccc4c(=O)n3CCCO)cc(=O)oc2c1C	-16%	u
O=C(/C=C/[C@H]1O[C@@H](n2cnc3c(NC(=O)c4ccccc4)ncnc32)[C@H](O)[C@@H]1O)NCCc1c[nH]c2ccccc12	7%	7%
Cc1ccc2c(c1)N(C(=O)CCC(=O)NCCCN1CC(C)CC(C)C1)CCO2 (configuration not stated)	10%	-6%
CC1CC(C)CN(c2ccc(-n3cnnn3)cc2[N+](=O)[O-])C1 (configuration not stated)	i	-23%
O=C(COC(=O)/C=C/c1cccc(Br)c1)NCCC1=CCCCC1	-16%	-2%
COc1cc(CNCc2ccccn2)ccc1OCc1ccccc1Cl	-21%	-22%
CCOC(=O)C1(c2ccccc2)NC(c2ccccc2C)C2C(=O)N(c3ccc4c(c3)OCO4)C(=O)C21 (configuration not stated)	-14%	-6%
Cc1ccc(NC(=O)CCN2C(=O)c3cccc4cccc(c34)C2=O)cc1	i	-1%
Cc1ccc(S(=O)(=O)N2CCC(C(=O)OCC(=O)N(C)C3CCCCC3)CC2)cc1C	i	-3%
CCN1CCOC(CC(=O)Nc2ccc([N+](=O)[O-])cc2)C1=O (configuration not stated)	i[7.34 µM]	-7%[7.34 µM]
CCc1ccc(CNC(=O)CCC(=O)N2Cc3cccc(OC)c3Oc3ncccc32)cc1	-10%	-11%
COc1ccc(-c2noc(N3CCC(C(=O)NCCCN4CCC(C)CC4)CC3)n2)cc1	i	-24%
Cc1ccc(C)c(NC(=S)NCc2ccccc2)c1	i	3%

Sorted by heavy-atom count (largest number first): some entries from above.
SMILES	Vaccinia mCherry	VACV Venus inh
O=C(/C=C/[C@H]1O[C@@H](n2cnc3c(NC(=O)c4ccccc4)ncnc32)[C@H](O)[C@@H]1O)NCCc1c[nH]c2ccccc12	7%	7%
CCOC(=O)C1(c2ccccc2)NC(c2ccccc2C)C2C(=O)N(c3ccc4c(c3)OCO4)C(=O)C21 (configuration not stated)	-14%	-6%
CCc1ccc(CNC(=O)CCC(=O)N2Cc3cccc(OC)c3Oc3ncccc32)cc1	-10%	-11%
COc1ccc(-c2noc(N3CCC(C(=O)NCCCN4CCC(C)CC4)CC3)n2)cc1	i	-24%
CSc1ccc(CCNC(=O)c2c(C)nn(-c3ccc(F)cc3)c2-n2cccc2)cc1	-22%	-7%
Cc1ccc2c(CSc3nc4ccccc4c(=O)n3CCCO)cc(=O)oc2c1C	-16%	u
Cc1ccc2c(c1)N(C(=O)CCC(=O)NCCCN1CC(C)CC(C)C1)CCO2 (configuration not stated)	10%	-6%
Cc1ccc(NC(=O)CCN2C(=O)c3cccc4cccc(c34)C2=O)cc1	i	-1%
CC(NC(=O)COC(=O)c1cc(=O)[nH]c2ccccc12)c1ccccc1 (configuration not stated)	i	-9%
O=C(COC(=O)/C=C/c1cccc(Br)c1)NCCC1=CCCCC1	-16%	-2%
CCN1CCOC(CC(=O)Nc2ccc([N+](=O)[O-])cc2)C1=O (configuration not stated)	i[7.34 µM]	-7%[7.34 µM]
CCOC(=O)c1ccc(NC(=O)NC2=NCCS2)cc1	u	u
Cc1ccc(C)c(NC(=S)NCc2ccccc2)c1	i	3%

Later entries
SMILES	Vaccinia mCherry	VACV Venus inh
C=CCN1C(=NC(=O)COc2ccc(Cl)cc2)SC2CS(=O)(=O)CC21 (configuration not stated)	-10%	-5%
CC(C)(C)c1nnc(NC(=O)CCC2CCCCC2)s1	-9%	0%
O=C(Nc1ccccc1)/C(=C\c1cccs1)NC(=O)c1ccccc1	-5%	-3%
Cc1ccc(CSc2nc3ccncc3n2Cc2nc(-c3ccccc3C)oc2C)cc1	-11%	-5%
CCOC(=O)c1ccc(NC(=O)c2cc3cc(C)ccc3n2C)cc1	-2%	-12%
COc1ccc(-n2c(SCC(=O)N3CCOCC3)nc(O)c(Cc3ccccc3)c2=O)cc1	x	-3%
O=C(O)CN1C(=O)/C(=C\c2cn(-c3ccccc3)nc2-c2ccccc2)SC1=S	-16%	-18%
O=C(NC1CN2CCC1CC2)c1cc(Cl)c([N+](=O)[O-])c2nc[nH]c12 (configuration not stated)	-1%	-14%
N#Cc1sc2nc(-c3ccccc3)cc(C(F)(F)F)c2c1N	-15%	0%
Clc1cccc(-c2nc3ccc(Br)cn3c2Cc2ccsc2)c1	9%	-7%
O=C(c1ccccc1F)N1CCC2(CC1)OCCO2	-9%	-17%
Cc1cnc(CNC(=O)c2ccc3nc([C@@H]4O[C@H](CO)[C@H](O)[C@H](O)[C@H]4O)[nH]c3c2)cn1	i	-4%
O=C(Nc1cc(C(F)(F)F)ccc1N1CCCC1)C1=COCCO1	-11%	-11%
Fc1ccc(C2CC(c3ccccc3)n3ncnc3N2)cc1 (configuration not stated)	x	-23%
CCOc1ccc(C2/C(=C(/O)c3ccc(OC)cc3)C(=O)C(=O)N2c2cc(C)on2)cc1OC (configuration not stated)	-17%	-8%
COc1cc(Cl)c(C)cc1NC(=O)Cn1ncc2c3ccccc3n(Cc3ccccc3)c2c1=O	-8%	-2%
CC(C)CCNC(=O)CCC(=O)NNc1nc2ccccc2c2nc(-c3ccccc3)nn12	-19%&-7%	-7%&-10%
CSCCC(NC(=O)c1ccc(Cl)cc1Cl)C(=O)N1CCCCCCC1 (configuration not stated)	-20%	-10%
CCCOC(=O)C1=C(C)N(C)C(=O)NC1c1cc2c(cc1[N+](=O)[O-])OCO2 (configuration not stated)	-14%	-8%
CCC(=O)OCC(=O)N=c1sccn1Cc1ccccc1Cl	-13%	-11%
CC(C)(C)c1ccc(-c2cc(N)n[nH]2)cc1	9%	-14%
C1CSC2(N1)C1CC3CC(C1)CC2C3 (configuration not stated)	x	-24%
O=C(CN1C(=O)CSc2ccccc21)N/N=C/c1ccco1	-2%[7.34 µM]	-6%[7.34 µM]
O=C1CCC(CCc2nc3ccccc3[nH]2)(c2ccccc2)C(=O)N1 (configuration not stated)	-3%	-7%
Fc1ccc(-n2c(Cc3cccs3)n[nH]c2=S)cc1Cl	u	-4%
Cc1ccc(-c2cn(-c3ccccc3)c(SCC(=O)NC3CCS(=O)(=O)C3)n2)cc1C (configuration not stated)	-15%	-18%
CCc1ccccc1NC(=O)N1CC(CC)Oc2ccc(Cl)cc21 (configuration not stated)	9%	-2%
CCC(C(=O)NCc1ccco1)n1nc(-c2ccc(OC)cc2)ccc1=O (configuration not stated)	x	-9%
CC(=O)c1cccc(NC(=O)CN2C(=O)COc3ccc(Cl)cc32)c1	i	-4%
Cc1ccnc(NS(=O)(=O)c2ccc(NC(=O)c3ccc(Br)o3)cc2)n1	-8%	-13%
CCOc1ccc(NC(=O)CSc2nc3ccccc3c(=O)n2Cc2cccs2)cc1	i	-13%
CCCCCCCNC(=O)C1(CC2CC(c3ccc(Cl)cc3)=NO2)CCN(C(=O)C2(C)CC2)CC1 (configuration not stated)	-2%	-18%
O=C(CSc1nnnn1C1CCCCC1)Nc1ccc2c(c1)OCO2	-10%	-8%
Cc1ccc(C)n1-c1ccc(C(=O)NCC2CCCO2)cc1 (configuration not stated)	-13%	-9%
COc1c(C=O)c(CCN(C)C(=O)c2ccc(F)cc2)cc2c1OCO2	-15%	-11%
COc1cccc(CN2CC(C(=O)N(C)Cc3[nH]c4ccccc4c3C)CCC2=O)c1 (configuration not stated)	-11%	-12%
CCN1C(=O)N[C@@H](c2ccco2)C(C(=O)OC)=C1C	-6%	-11%
CCCN(CCC)c1nn2c(=O)c(C(=O)NCc3cc(Br)ccc3OC)cnc2s1	-14%	-19%
CN1CCN(C(=O)CCn2nc(-c3ccccc3)c3ccccc3c2=O)CC1	x	-2%
COC(=O)c1sc(NC(=O)CSc2nc3cccnc3n2C2CCCCC2)nc1C	-7%	-7%
CC1(C)CC(=O)C=C(C(=O)N2CCCC(C(=O)c3cccc(C(F)(F)F)c3)C2)O1 (configuration not stated)	i	-14%
O=C(NC1CC2CCCC(C1)N2C(=O)Nc1ccc(F)cc1)c1ccccc1 (configuration not stated)	-6%	-14%
CO[C@@H]1C[C@@H](C[C@H]2CC[C@H](C)[C@@H]([C@@H](C)C(=O)O)O2)O[C@]2(O[C@](C)([C@H]3CC[C@@](C)(C4OC([C@H]5O[C@@](O)(CO)[C@H](C)C[C@@H]5C)C[C@@H]4C)O3)C[C@H]2C)[C@@H]1C (some centres not stated)	-23%[20.9 µM]	-35%[20.9 µM]
Cc1ccc(C)c(N(C(=O)c2snc(C(N)=O)c2N)C(C(=O)NCC2CCCO2)c2cccs2)c1 (configuration not stated)	-14%	-15%
O=C(c1cc2ccccc2o1)N1CCCC1	23%	-13%
Cn1c(=O)c2c(O)cc(=O)n(-c3ccccc3)c2n(C)c1=O	-8%	-4%
Cc1cc2ncn(C(=O)c3ccc4c(c3)OCO4)c2cc1C	x	-9%
CCCNC(=O)COc1coc(CN2CCN(c3cccc(Cl)c3)CC2)cc1=O	-7%	-19%
Cc1cc(NC(=O)C2CC(c3ccccc3Cl)=NO2)no1 (configuration not stated)	-7%	-4%
Cc1ccc(-n2c(CSc3nc(C)cc(C)n3)nnc2SCC(=O)Nc2nccs2)cc1	i	-2%
CC(C)Cc1cc(CNC(=O)C2CCC(=O)N(Cc3cccc(C(F)(F)F)c3)C2)on1 (configuration not stated)	-22%	-19%
O=C(COC(=O)CCc1ccc(S(=O)(=O)N2CCOCC2)cc1)Nc1ccc(Cl)cn1	-11%	-7%
COc1ccc(NC(=O)Nc2ccccc2F)cc1	i	-13%
Cc1cccc(NC(=S)NC(=O)c2oc3ccccc3c2C)n1	-11%	2%
Oc1ccc(CCNc2ncnc3ccc(Cl)cc23)cc1	u	u
CCn1cc(C(=O)NCc2ccco2)c(=O)c2cc(F)c(N3CCN(C(=O)c4ccco4)CC3)cc21	-23%	u
Cn1c(SCC(=O)NC(=O)NCc2ccco2)nnc1-c1ccccc1	x	-12%
COc1ccc(CNC(=O)CCc2c(C)c3cc4c(C)coc4cc3oc2=O)cc1	-21%	0%
Brc1ccccc1C1CC(c2ccccc2)=Nc2ccccc2N1 (configuration not stated)	-13%	-9%
Cc1ccc(CSc2nnc(SCC(=O)N/N=C/C=C/c3ccco3)s2)cc1	i	-14%

Assay outcomes deposited in PubChem BioAssay by National Center for Advancing Translational Sciences (NCATS).
